ClpP mod: qHTS Assay for Activators of ClpP | ATP-dependent Clp protease proteolytic subunit (Bacillus subtilis (strain 168)), P80244 | purified B. subtilis ClpP, FRET peptide cleavage, 20 min | Potency, µM (highest dose often 57.5 µM), for inactives: at the highest dose activity change, negative = active | 340,000 tested, 1.9% active | AID 651965, 2013; active = well fitted falling curve with a large enough effect; inconclusive = small, poorly fitted or top-dose-only effect; inactive = no such curve, though single readings can be large or run the other way; further: potency means the concentration at half of the fitted maximal effect; the source files actives as falling curves though it sought activators and does not explain the sign; nearly all actives have a fitted effect of over 65% in size; many hits overshoot -100%
Target sequence (P80244 whole entry, looked up): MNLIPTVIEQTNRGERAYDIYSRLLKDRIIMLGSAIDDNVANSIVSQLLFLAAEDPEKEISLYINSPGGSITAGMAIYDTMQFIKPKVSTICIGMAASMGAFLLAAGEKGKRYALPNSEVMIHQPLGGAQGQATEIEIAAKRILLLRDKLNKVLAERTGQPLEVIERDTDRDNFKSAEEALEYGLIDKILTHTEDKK
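FRET quenching reversal measured ClpP activation: 10 microg/mL B. subtilis ClpP at pH 8 with the FRET-FV decapeptide, read at 430 nm after 320 nm excitation. The 20-min minus 0-min signal was scaled between DMSO/no-enzyme wells and ADEP (5.8 microM final).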
D2 ag: human D2 receptor agonism in beta-arrestin assay | P14416 | DiscoveRx PathHunter D2 beta-arrestin, luminescence, 90 min; 100% = 57 uM dopamine signal | activation, % (concentration not given with the values) | 360,000 tested, 0.084% active; in the data active = activation above about 40%; inconclusive = about 15% to 40%; inactive = below about 15%; further: compound concentration not given in the record; the text of the record calls up to 30% inactive
Target sequence (P14416 whole entry, looked up): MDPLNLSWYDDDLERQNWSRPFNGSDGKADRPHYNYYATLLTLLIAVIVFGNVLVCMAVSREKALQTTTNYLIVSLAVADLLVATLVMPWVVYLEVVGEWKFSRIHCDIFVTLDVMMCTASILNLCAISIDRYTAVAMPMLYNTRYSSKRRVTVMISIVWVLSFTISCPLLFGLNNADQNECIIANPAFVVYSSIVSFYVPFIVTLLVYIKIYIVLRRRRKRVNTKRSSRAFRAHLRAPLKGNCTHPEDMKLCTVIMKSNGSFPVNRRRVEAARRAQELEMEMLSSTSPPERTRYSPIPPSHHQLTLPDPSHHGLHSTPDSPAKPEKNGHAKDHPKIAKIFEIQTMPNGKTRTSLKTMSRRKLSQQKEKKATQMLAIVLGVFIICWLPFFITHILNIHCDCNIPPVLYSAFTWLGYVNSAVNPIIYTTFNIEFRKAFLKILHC
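DiscoveRx PathHunter D2 beta-arrestin cells (2,100/well) attached overnight, then compound-stimulated 90 min at 37 C in HBSS/10 mM HEPES/0.1% Tween-20 buffer; beta-galactosidase complementation read by luminescence after 1 h at ambient temperature. Dopamine 57 uM final (EC100) as control.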
gsp antagonist: gsp mutant antagonism. gsp-mutant cells, cAMP HTRF, 30 min; control for the full effect not named in the record. Potency, µM (highest dose often 76.9 µM), for inactives: at the top dose activity change, negative = inhibition, hits mostly inhibitors. 340,000 tested, 0.4% active. AID 624288; active = falling curve of any shape with a large fitted effect; inconclusive = falling curve, mostly with a smaller effect; inactive = flat or rising curve; cell line not stated here;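 further: intracellular cAMP measured with PDE inhibitor Ro 20-1724 present during compound exposure; potency means the concentration at half of the fitted maximal effect; on the % scale 0 is the no-effect control and ±100 the full control effect; nearly all actives have a fitted effect of over 65% in size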
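Cells, 2000/well, grown 16–24 h in DMEM 10% FBS with 0.5 mg/ml G418, then compounds plus […] (300 uM addition stock), 30 min at 37C. cAMP read by HTRF (cAMP-d2 and anti-cAMP antibody-K in lysis buffer) after 30 min RT.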
gsp agonist: activates gsp, the McCune-Albright syndrome mutation; Potency, µM (top dose mostly 76.9 µM), for the others: at the highest dose activation (cAMP increase), usual class: activators; 340,000 tested, 0.13% active; gsp mutant cells, cAMP HTRF, 30 min; control for the full effect not named in the record; AID 624287; active = well fitted activation curve with a large enough effect; inconclusive = small, poorly fitted or top-dose-only effect, or another doubt; inactive = no such curve, though single readings can be large or run the other way; cell line not stated here;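 further: phosphodiesterase inhibitor Ro 20-1724 added with compounds to block cAMP breakdown; potency means the concentration at half of the fitted maximal effect; nearly all actives have a fitted effect of over 60% in size; about a fifth of the inactives were tested at one dose only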
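Cells stably selected in G418 were plated at 2000/well, grown 16-24 hr, then given compounds in DMSO with the PDE inhibitor […] (300 uM solution added) for 30 min at 37C; cAMP was read by HTRF.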
PINK1 expr mod: changes PINK1 expression. PINK1 immunofluorescence, high-content cytometry, 24 h. Potency, µM (highest dose often 76.6 µM), for inactives: at the highest dose activation (PINK1 increase), hits mostly activators. 410,000 tested, 0.2% active. AID 624263; active = well fitted activation curve with a large enough effect; inconclusive = small, poorly fitted or top-dose-only effect; inactive = flat fitted curve, though single readings scatter; cell line not stated here;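 further: potency means the concentration at half of the fitted maximal effect; % of control where 0% means no effect; nearly all actives have a fitted effect of over 65% in size; a mitochondrial uncoupler was the plate control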
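Fluorescence from anti-PINK1 antibody, together with nuclear and cell stains, was scanned on a laser-scanning cytometer. Before staining, stable-line cells were incubated 24 hours with compounds at 5 concentrations; primary antibody 12 h at 10 degrees C.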
Sfp PPTase inh: Sfp phosphopantetheinyl transferase inhibition; Potency, µM, inactives show max response, negative = inhibition, most hits filed as inhibitors; Biochemical Sfp PPTase activity, qHTS; Q9F4F7; AID 1490; 310,000 tested, 3.5% active; active means well fitted inhibition curve with a large enough effect; inconclusive means small, poorly fitted or top-dose-only effect, or another doubt; inactive means no such curve, though single readings can be large or run the other way;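 further: the enzyme is Sfp with the accession as filed and its product quenches rhodamine fluorescence; potency means the concentration at half of the fitted maximal effect; 0% = enzyme reaction without inhibitor and -100% = no enzyme wells; top concentration of the series not given in the record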
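Step 1, compound plus 15 nM Sfp-PPTase, 15 min, room temperature. Step 2, add rhodamine-CoA (5 uM) and BHQ-2-YbbR (12.5 uM). Step 3, read 525/598 nm fluorescence at 0 and 30 min.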
Menin-MLL FL inh: displaces fluorescein MLL peptide from human menin; Fluorescence polarization, fluorescein-MLL peptide displacement from menin; FP activity change, % at 61.4 µM; AID 1766; 290,000 tested, under 10 active; inconclusive = falling polarisation curve, or a change in total fluorescence; inactive = total fluorescence flat and polarisation flat or rising; no compound was filed as active; the % refers to the polarisation; negative = inhibition;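 further: % of control where 0% means no effect; inhibitors lower the polarisation; unlabelled MLL peptide was the positive control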
Active calls of the source: *; ? = inconclusive; . = not tested or not shown; & = joins results of further samples; [ ] = dose if it differs, or a comment.

Every second line gives: ClpP mod | D2 ag | gsp antagonist | gsp agonist | PINK1 expr mod | Sfp PPTase inh | Menin-MLL FL inh
> COC(=O)Cn1cnc2c(cnn2-c2ccc(C)cc2)c1=O
→ -6.5% | -3.1 | -3% | -1% | -1.3% | 0% | -5.7
> CNc1ncncc1-c1c(C)noc1C
→ . | . | . | . | -1.0% | 9% | -3.1
> COc1ccccc1NC(=O)CSCc1cc(=O)n2c(C)csc2n1
→ -1.4% | -4.8 | -1% | 26% | 1.2% | 10% | -2.8
> Cc1cc(C)c(C#N)c(SCC(=O)NC2CC2)n1
→ -2.2% | -2.6 | -3% | -7% | 0.6%[38.3 µM] | -8% | 2.9
> O=C(OCc1cc(=O)n2c(n1)sc1ccccc12)c1ccc(O)cc1O
→ -18% | -0.7 | -10% | -3% | 2.5% | 5% | 1.6
> O=[N+]([O-])c1cc(O)c2ncccc2c1
→ . | -11 | -10% | 2%[15.4 µM] | 1.9% | 19% | -1.2
> COc1ccc(NC(=O)CN(C)C(=O)CNC(=O)c2sc3ccccc3c2Cl)cc1
→ -2.2% | -0.3 | -14% | ? | 0.7% | . | .
> Cc1cccc(-n2ccnc2SCC(=O)N2CCCc3ccccc32)c1C
→ 1.4% | 0.2 | -9% | -53%[inhibitor] | 1.1% | 12% | -0.1
> Cc1ccc(C(=O)NC(Cc2cccc(F)c2)C(=O)O)cc1 (centres undefined)
→ -2.9% | -1.7 | 5% | . | 0.0% | . | .
> Cc1[nH]c2ccc(C(=O)Nc3ccncc3)cc2c1C
→ -5.1% | 1.3 | -13% | 11% | 0.5% | 1% | -6.7
> NC(=O)CSc1nnc(NC(=O)c2cccc(S(=O)(=O)N3CCCCC3)c2)s1
→ . | -2.8 | . | 0%[15.4 µM] | -1.6% | 16% | -1.4
> O=C(CCC1CCN(Cc2nccs2)CC1)Nc1ccccc1
→ 2.3% | -2.5 | . | -7% | -1.3% | . | .
> Cc1nnc(SCCOC(N)=O)n1C
→ 1.0% | -3.1 | 0% | -40% | 1.9% | 6% | -0.8
> Cc1nc2c(C#N)c(-c3ccc(Cl)cc3)ccn2n1
→ -22% | 6.6 | -4% | 16% | 0.3% | 12% | -3.0
> CC(=C\c1ccccc1)/C=C1/SC(=O)N(CCCC(=O)Nc2ccc(C(=O)O)cc2)C1=O
→ . | 1.4 | -34% | 0% | -1.0% | 17% | -4.5
> COc1ccc(CCNC(=O)C2CCN(C(=O)c3ccc(Br)cc3)CC2)cc1OC
→ -1.4% | 3.6 | -23% | -23% | -0.6% | -1% | -0.7
> Cn1ncc(Cl)c1C(=O)N1CCN(c2ccc(F)cc2)CC1
→ -2.2% | -1.0 | -13% | ? | -0.7% | 7% | 0.6
> O=C(Nc1nnc(Cc2ccc([N+](=O)[O-])cc2)s1)c1ccc2c(c1)OCO2
→ . | 3.2 | 1% | -4%[15.4 µM] | -1.0% | 20% | -0.4
> CCOC1=C2[C@@H](CN(S(=O)(=O)c3ccc(C)cc3)[C@H]2c2cccc3ccccc23)[C@H]2C(=O)N(CC)C(=O)[C@H]2C1
→ 0.2% | 1.7 | . | . | 2.1% | . | .
> O=C(NCCc1ccccc1)c1ccc(NC2=NC3CS(=O)(=O)CC3S2)cc1 (centres undefined)
→ -3.5% | -0.5 | 9% | ? | -0.4% | 11% | 1.7
> Cc1nnc(SCC(=O)Nc2ccc3c(c2)OCCO3)n1N
→ 3.4% | 1.1 | 14% | -31%[inhibitor] | -1.4% | 17% | -1.4
> Cc1ccc(C(=O)N2CCCC2)cc1S(=O)(=O)Nc1cccc(C)c1C
→ . | -0.6 | -14% | -13% | -0.2% | 13% | 5.7
> CCSc1nnc(NC(=O)c2c(-c3ccccc3Cl)noc2C)s1
→ -2.1% | -3.3 | -36% | 0% | 1.5% | -16% | 1.9
> CC(=O)c1cc2c(cc1NC(=O)CN1CCCCCCC1)OCO2
→ ? | -3.8 | 16% | -54%[inhibitor] | 6.0% | -25% | 1.4
> O=C(OCCN1CCOCC1)c1ccc(Cl)cc1Cl
→ -1.0% | -5.0 | 6% | -9% | 0.0% | 1% | 0.6
> COC(=O)c1cc(S(=O)(=O)N2CCN(c3ccccc3OC)CC2)cn1C
→ . | -0.3 | 3% | 10% | 2.5% | 9% | .
> COC(=O)C1=C(C(=O)OC)[C@@H]2N(Cc3ccccc3)c3ccccc3[C@@]23C[C@@H](C(=O)OC)N=C3N1
→ -1.3% | 0.2 | 0% | . | 0.5% | 3%&-5% | -3.5[11.7 µM]
> CCCN(CC)c1ncnc2[nH]ncc12
→ -1.2% | -2.9 | 2% | 14%[15.4 µM] | -1.3% | . | .
> C=CCN(C)NC(=S)Nc1ccccc1
→ 0.6% | 0.6 | 8% | -11% | 0.5% | 4% | 4.8
> CS(=O)(=O)Nc1cccc(-c2nc(Nc3ccccc3)c3ccccc3n2)c1
→ . | . | . | . | -0.8% | -8% | 0.0
> C=C(C)COc1ccc(-c2ncnc(C(F)(F)F)c2-c2ccccc2)c(O)c1
→ . | 2.2 | -3% | 1% | ? | -3% | 0.3
> Cc1cc(S(=O)(=O)Nc2cccc(O)c2)c(C)s1
→ -1.1% | -5.1 | -15% | -10% | -0.9% | 7% | -2.9
> CCOC(=O)CC1ON(C)C(=O)N1c1ccc(Cl)cc1Cl (centres undefined)
→ 1.8% | -1.7 | -4% | 0% | 0.2% | -5% | 2.7
> Cc1nc2ccccn2c1C(=O)N/N=C/c1ccc(F)cc1
→ . | -4.3 | -1% | -9% | 0.6% | 36%[activator] | -4.4
> COCCNc1nc(NCc2cc(-c3ccc(OC)cc3)no2)c2sccc2n1
→ -6.7% | -3.4 | . | . | 0.1% | . | .
> CC(=O)N1N=C(c2ccc([N+](=O)[O-])cc2)CC1c1ccccc1Cl (centres undefined)
→ . | 0.2 | -9% | -2% | 1.4% | -5% | -2.0
> COc1ccc(F)cc1C(=O)C1CCCN(C(=O)CCN2CCCCO2)C1 (centres undefined)
→ -8.7% | -3.0 | 4% | 3% | 1.5% | 9% | 3.5
> CCOc1ccc(NS(=O)(=O)c2ccc(C(=O)N3CC(C)OC(C)C3)cc2)cc1 (centres undefined)
→ 0.8% | -7.7 | -3% | 23% | 0.9% | . | .
> COc1ccc(F)cc1C(=O)C1CCCN(Cc2c[nH]c3ccccc23)C1 (centres undefined)
→ -0.2% | -3.4 | 14% | ? | 2.6% | 14% | -9.8
> CC(=O)c1ccc(N2CCN(C(=O)c3ccc(Cn4c(=S)[nH]c5ccc(N6CCOCC6)cc5c4=O)cc3)CC2)cc1
→ . | 0.6 | -18% | 18%[15.4 µM] | 2.2% | 6% | -0.5
> O=S(=O)(NCC(c1ccco1)N1CCN(c2ccc(F)cc2)CC1)c1ccc2c(c1)OCCO2 (centres undefined)
→ -2.5% | -1.9 | -10% | -16% | 0.7% | 8% | -4.2
> CCN(CC(=O)Nc1ccccc1C(F)(F)F)C(=O)C1CCC1
→ 2.4% | 1.5 | 11% | -36%[inhibitor] | -0.3% | . | .
> CN1CCCN(C(=O)CSc2ccccc2)CC1
→ . | 2.9 | 16% | -29% | 4.3% | 11% | 3.3
> O=C(Nc1nnc(SCc2ccc(Cl)cc2)s1)c1cnccn1
→ 3.8% | -2.4 | 3% | -20% | 0.1% | -3% | 1.1
> O=C(NCCC(c1ccccc1)c1ccco1)c1cccs1 (centres undefined)
→ 1.7% | 1.6 | -8% | 5% | 0.7% | -12% | 0.8
> CCOC(=O)C1=CCN(S(=O)(=O)c2ccccc2Cl)C1c1cccc(Cl)c1 (centres undefined)
→ -0.1% | -2.8 | . | . | 0.3% | . | .
> Cc1nc2ccccc2nc1OCC(=O)Nc1ccccc1
→ -19% | -0.3 | 1% | ? | 5.0% | 20% | -0.6
> NC(=O)NNC(=S)Nc1cccc2ccccc12
→ -0.3% | -6.3 | 2% | -1%[15.4 µM] | -0.6% | -10% | -0.1
> CCCCOC(=O)/C(=C\c1ccc([N+](=O)[O-])o1)NC(=O)c1ccccc1
→ -0.1% | 0.4 | 5% | 11% | 1.2% | 16% | 17
> O=C(NCc1cccc(Cl)c1)C1Cc2c(-c3ccccc3Oc3ccccc3)ccnc2O1 (centres undefined)
→ -9.4% | 1.6 | . | . | 1.5% | . | .
> O=C(Nc1ccccc1)O/N=C1/CCCc2occc21
→ . | -7.0 | 5% | 28% | 0.1% | 4% | 5.2
> CCc1ccc2nc(NC(=O)Cn3cnc4ccccc4c3=O)sc2c1
→ -4.1% | -8.3 | 7% | ? | -0.5% | -2% | 3.9
> CC(=O)NC1(C(F)(F)F)C(=O)Nc2c1c(=O)[nH]c(=O)n2-c1ccccc1 (centres undefined)
→ . | 0.6 | 0% | 10%[15.4 µM] | 0.6% | 16% | -1.2
> Cc1cc(C(F)(F)F)nc(NCc2ccc(F)cc2)n1
→ -24% | 0.3 | 10% | 7% | ? | 20% | -0.9
> Cc1cc(C)nc(-n2nc(C)c(Sc3ccc(F)cc3)c2N)n1
→ 0.6% | -0.1 | 12% | 15% | 4.9%[38.3 µM] | -27% | 3.6
> Cc1ccccc1-n1c(SCC(=O)N2CCOCC2)nc(O)cc1=O
→ -0.5% | -1.0 | 6% | -4% | -1.8%[38.3 µM] | -1% | -0.8
> COc1ccc(CC(=O)OCC(=O)NCC2CCCO2)cc1OC (centres undefined)
→ 1.1% | -1.9 | 5% | ? | 2.5% | . | .
> Nc1cc(C(=O)N/N=C/c2cccc([N+](=O)[O-])c2)n[nH]c1=O
→ . | 1.7 | -1% | 6%[15.4 µM] | 1.4% | -8% | 0.0
> Cc1ccc(NC(=O)CN(C)Cc2ccc(F)cc2)c([N+](=O)[O-])c1
→ 5.3% | 0.9 | -7% | ? | 3.0% | -8% | 6.7
> C=CCOc1ccc(/C=C2/C(=N)N3N=C(CC(=O)N4CCCC4)SC3=NC2=O)cc1OC
→ -1.8% | 0.4 | -7% | ? | -0.6% | 13% | 10
> CCCCN(C)CCCN1C(=O)C2C(C(=O)Nc3cccc(OC)c3)C3C=CC2(O3)C1C(=O)NC1CCCCC1C (centres undefined)
→ . | -2.0 | 8% | 17%[15.4 µM] | 0.0% | -1% | -6.0

Screening data from PubChem BioAssay.
